UCH37 DUB inh: blocks the human deubiquitinase UCH37 | Q9Y5K5 | purified proteasome/UCH37, Ub-AMC cleavage fluorescence | inhibition, % (no concentration beside the values) | 330,000 compounds, 0.33% hits | AID 588478;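 active = mean of two replicates above 20%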;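 note: 0% = compound-free wells with enzyme and 100% = wells lacking proteasome; stock transfer was 100 nL into about 20 µL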
Target sequence (Q9Y5K5 whole entry, looked up): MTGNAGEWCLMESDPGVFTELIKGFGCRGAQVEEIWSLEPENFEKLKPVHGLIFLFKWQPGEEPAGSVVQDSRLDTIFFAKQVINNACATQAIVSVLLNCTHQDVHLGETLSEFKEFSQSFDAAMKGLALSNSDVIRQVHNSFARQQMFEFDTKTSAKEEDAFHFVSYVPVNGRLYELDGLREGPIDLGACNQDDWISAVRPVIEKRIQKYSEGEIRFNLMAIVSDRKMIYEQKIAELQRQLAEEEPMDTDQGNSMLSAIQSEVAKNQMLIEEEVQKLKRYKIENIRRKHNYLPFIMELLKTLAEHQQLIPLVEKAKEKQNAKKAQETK
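Signal – fluorescence, ex 355 nm, em 460 nm · System – Proteasome-bound UCH37 · Input – 0.15 nM proteasome as dispensed · Timing – 30 min preincubation with enzyme, 25 min cleavage at room temperature · Read-out basis – percent inhibition of cleavage signal versus uninhibited and no-proteasome wells · Medium – Tris-HCl pH 7.4 with ATP-MgCl2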
B2AR ag: human beta-2 adrenergic receptor agonism by FAP; P07550; Am2.2-beta2AR cells, FAP receptor internalization, flow cytometry; reference of the scale not given here; response, % (test concentration not listed); 340,000 compounds, 0.43% hits;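 active = response above a set limit, near 3 SD of response in nonfluorescent compounds, cut at about 42% in these data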;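 note: stock transfer was 100 nL into about 11 µL; a reference agonist was the positive control; negative values mostly stem from fluorescent compounds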
ALR H2O2 inh: blocks human ALR sulfhydryl oxidase activity; 290,000 compounds, 3.8% hits; inhibition, % (concentration not given with the values); purified ALR, DTT oxidation, H2O2 HRP-luminol luminescence; P55789;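 active = mean and each replicate at 75% or more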;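 note: stock transfer was 7.5 nL into about 7.5 µL; 0% = neutral wells and 100% = wells with inactivated enzyme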
Target sequence (P55789 whole entry, looked up): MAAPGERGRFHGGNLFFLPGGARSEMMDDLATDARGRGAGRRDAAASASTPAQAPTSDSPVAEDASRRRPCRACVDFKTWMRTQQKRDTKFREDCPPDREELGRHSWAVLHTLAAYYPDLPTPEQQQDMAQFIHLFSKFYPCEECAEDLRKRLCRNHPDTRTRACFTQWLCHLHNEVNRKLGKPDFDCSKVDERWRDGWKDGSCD
rRNA inh HTS: selective bacterial rRNA inhibition in E. coli; E. coli WT GFP vs humanized-ribosome RFP mutants, fluorescence, 24 h; stronger effect = lower value; DMSO median 0, no signal -100; GFP signal change (wild-type ribosome), % (concentration not given with the values); 350,000 compounds, 1.6% hits; AID 720706;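 active = significant combined selectivity score with lowered wild-type GFP, culture density cut under 30%, mutant RFP and density less affected; inactive = any of these conditions unmet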; note: one replicate is shown; some compounds called inactive have numbers as strong as hits
HNF4A DNA FP: change in binding of human HNF4 alpha to DNA | P41235 | HNF4a-FITC DNA binding, fluorescence polarization, 1 h | activity change, % at 10 µM | 360,000 compounds, 0.3% hits; in the data active = activity change above about 30%, passing the limit was not always enough;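 note: controls were the assay level and a saturating level of protein; the project sought stronger binding though the title names inhibitors; some compounds called inactive have numbers as strong as hits; positive values seem to mean higher polarization but the record does not say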
FGF22 binding: binders of recombinant human FGF22 by thermal shift. calls only at 9.99 µM. 340,000 compounds, 1.5% hits. SYPRO orange fluorescence; percent of sucrose octasulfate shift, DMSO zero;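 active = melting point raised past a set limit in the mean and every replicate; three in four hits are not shown here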
Target sequence (Q9HCT0 whole entry, looked up): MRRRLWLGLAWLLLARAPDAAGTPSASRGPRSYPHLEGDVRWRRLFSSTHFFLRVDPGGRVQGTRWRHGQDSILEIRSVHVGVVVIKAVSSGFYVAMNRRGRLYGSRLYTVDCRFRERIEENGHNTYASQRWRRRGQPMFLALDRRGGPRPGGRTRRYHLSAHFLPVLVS
Ecoli growth: blocks Escherichia coli growth; AID 1053175; OD600 absorbance (test concentration not listed); OD600, 23 h; stronger effect = lower value; 330,000 compounds, 0.21% hits;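 active = OD600 absorbance below the run mean of sample wells minus 3.6 SD, in any replicate, cut at about 0.56 in these data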;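 note: stock transfer was 300 nL into about 60 µL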
rRNA inh HTS OD600: further read-out of rRNA inh HTS, marked with its call; OD600 change, %; measured here: OD600 growth;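 optical density of the mix in the first replicate; 0 = DMSO median and -100 = no signal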
rRNA inh HTS RFP: further read-out of rRNA inh HTS, marked with its call; RFP signal change, %; measured here: RFP humanized mutant strains;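 first replicate; 0 = DMSO median and -100 = no signal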
* = called active by the depositor; i = inactive; / = not tested or not shown; & = joins results of further samples.

SMILES | UCH37 DUB inh | B2AR ag | ALR H2O2 inh | rRNA inh HTS | rRNA inh HTS OD600 | rRNA inh HTS RFP | HNF4A DNA FP | FGF22 binding | Ecoli growth
CCC1(c2ccccc2)NC(=O)N(CC(=O)N(C)CC(=O)Nc2ccc(F)c(F)c2F)C1=O (stereo not drawn) | -0.8 | -5 | -4 | 9 | 5 | -1.6 | 1.9 | i | 0.59
Cc1ccc([N+](=O)[O-])c(OCCN2C(=O)NC(C)(C)C2=O)c1 | 5.4 | 1 | 1 | 21 | 15 | -0.9 | -3.0 | i | 0.72
COc1ccc(CC(=O)N(C)CC(=O)Nc2ccccc2Cl)cc1S(=O)(=O)N1CCOCC1 | 3.4 | 1 | / | / | / | / | 5.8 | i | 0.71
CC(C)CC(NC(=O)c1ccccc1NC(=O)c1ccccc1)C(=O)O (stereo not drawn) | -0.4 | -3 | 4 | -4 | -3 | -0.7 | -3.3 | i | 0.66
CCn1c(Cc2ccccc2)nnc1SCC(=O)Nc1ccc(N2CCOCC2)c(Cl)c1 | 0.2 | 1 | -11 | / | / | / | 6.0 | / | 0.74
C[C@H](CO)N1C[C@H](C)[C@@H](CN(C)Cc2ccc(Cl)c(Cl)c2)OCc2cnnn2CCCC1=O | / | / | / | -9&-5 | -19&-9 | 1.7&4.6 | 1.0 | i | /
CCCOc1ccc(C2C(C(=O)c3ccc(C)o3)=C(O)C(=O)N2CCN2CCOCC2)cc1OC (stereo not drawn) | 7.8 | -9 | 3 | / | / | / | 0.1 | / | 0.72
CCNC(=S)N1CCN(Cc2ccc3c(c2)OCO3)CC1 | -0.7 | 6 | / | 10 | 5 | 1.5 | -0.8 | i | 0.68
COC(=O)c1cc(OC)c(OC)cc1NC(=O)Nc1ccc(OC)cc1OC | -26 | 17 | / | / | / | / | -1.1 | / | 0.69
CC(=O)c1cccc(NC(=O)N2CCCC2C(=O)Nc2cccc(C)c2C)c1 (stereo not drawn) | 2.7 | -6 | -1 | / | / | / | -1.1 | / | 0.72
CCOC(=O)N1CCN(C(=O)c2cccc(S(=O)(=O)Nc3ccc(Br)cc3)c2)CC1 | 5.9 | 1 | / | -39 | -33 | -2.8 | 2.9 | i | 0.65
COc1ccc(NS(=O)(=O)c2ccc(OC)c(OC)c2)cc1OC | 2.5 | -11 | 1 | / | / | / | 0.1 | / | 0.68
CCn1ncc(CNC(=O)CCCSc2nc(-c3ccco3)cc(C(F)(F)F)n2)c1C | 4.3 | -9 | -9 | / | / | / | 1.5 | / | 0.75
C=CC[C@@H](CC(=O)N(CCO)Cc1ccccc1)C(=O)N[C@H](COC(=O)[C@@H](CC=C)CC(=O)OC(C)(C)C)Cc1ccccc1 | 1.0 | 0 | / | 4 | 3 | 11 | -0.3 | i | 0.71
CCCS(=O)(=O)c1c(S(=O)(=O)CCC)c2cc(-c3ccncc3)ccn2c1C(=O)OC | i | -1 | -9 | -28 | -33 | -1.2 | 1.4 | i | 0.66
COc1ccc(CCNS(=O)(=O)c2cc(C(=O)O)c(Cl)cc2Cl)cc1 | -2.9 | 2 | -13 | / | / | / | 2.7 | / | 0.71
Nc1sc2c(c1C(=O)NC1CC1)CCCC2 | -6.3 | 8 | 9 | 16 | 18 | 4.4 | 3.6 | i | 0.66
COC(=O)c1ccc(NC(=O)COC(=O)CCC2CCCC2)cc1 | 1.8 | -6 | -7 | -3 | -1 | -1.2 | -0.8 | i | 0.74
Cc1ccc(C)c(OCC(=O)N/N=C/c2ccc(N3CCOCC3)cc2)c1 | / | / | / | -2 | -3 | 6.2 | -0.2 | i | /
Cc1ccsc1C(=O)NNC(=O)c1csc(N2CCOCC2)n1 | 2.2 | -2 | / | 7 | 8 | -2.4 | -0.4 | i | 0.68
Cc1nnsc1C(=O)NC(C)C12CC3CC(CC(C3)C1)C2 (stereo not drawn) | 2.9 | -3 | / | 2 | 5 | -2.2 | 1.3 | i | 0.68
Cn1nnc2cc(C(=O)Nc3ccc4ccccc4c3)ccc21 | 0.9 | 6 | 0 | 6 | 7 | 1.7 | -3.6 | i | 0.69
CC1=CC2(O)OCCN(CCO)C2=CC1=O (stereo not drawn) | 3.1 | 7 | 14 | 4 | -1 | 11 | 0.8 | i | 0.65
CSc1nccc(Oc2cncc(Cl)c2)n1 | -0.2 | 3 | -19 | 13 | 4 | -1.5 | 2.6 | i | 0.71
CN(C)c1ccc(-c2cc(O)c3ncccc3c2)cc1 | / | 12 | 6 | -4 | 4 | 3.9 | 2.2 | i | /
COc1cccc(Nc2nc3ccccc3n3nnnc23)c1 | -58 | -4 | 97* | / | / | / | 3.7 | / | 0.67
CC(C)n1ncc2c(C(=O)N3CCN(c4ccccc4)CC3)cc(-c3ccccc3)nc21 | -2.9 | 3 | -3 | / | / | / | 0.0 | i | 0.67
Cc1n[nH]c(=S)n1/N=C/c1ccccc1 | / | 3 | 97* | / | / | / | 1.7 | / | /
O=C(C1CCCCC1)N1CCN(c2nc(-c3ccc(F)cc3)cs2)CC1 | -1.6 | -7 | -16 | 13 | 13 | 2.2 | 0.7 | i | 0.74
CCN(CC(=O)NCc1ccc(F)cc1)C(=O)Cc1c(F)cccc1Cl | 0.6 | 2 | 4 | 1 | -4 | -0.4 | 11 | i | 0.67
O=C1CC(c2ccc(F)cc2)SC(N(c2ccccc2)c2ccccc2)=N1 (stereo not drawn) | 4.6 | 22 | -98 | / | / | / | 3.3 | / | 0.7
O=Cc1cccc(Oc2ncccn2)c1 | -3.1 | 2 | / | 16 | 13 | 1.8 | 4.0 | i | 0.72
CCc1noc(C)c1C(=O)Nc1nc(-c2ccc(Cl)cc2Cl)c(C)s1 | 3.0 | 9 | -1 | / | / | / | 5.3 | / | 0.69
O=C(COC(=O)CCc1ccc(S(=O)(=O)N2CCOCC2)cc1)Nc1cccc(Cl)c1 | 1.4 | 3 | -8 | -16 | -9 | 4.4 | -4.1 | i | 0.7
O=c1c2ccccc2oc2ncccc12 | 0.0 | -6 | / | / | / | / | 2.4 | / | 0.67
N#Cc1c(NC(=O)Cn2c(=O)oc3ccccc32)oc(-c2ccccc2)c1-c1ccccc1 | 1.2 | 5 | 5 | / | / | / | -4.7 | / | 0.69
COc1ccc(-c2c(C)nc3c(-c4ccccn4)cnn3c2N)cc1 | -122 | 8 | 7 | -1 | -8 | 4.6 | 2.0 | i | 0.66
CC(=O)N1CCC(C(=O)N2c3ccccc3N=C(c3ccc(C(F)(F)F)cc3)C2C(=O)NC(C)C)CC1 (stereo not drawn) | / | / | / | -4 | 12 | 1.4 | -2.4 | i | /
COc1ccc(NC(=O)c2ccc(N(C)S(C)(=O)=O)cc2)cc1OC | 5.2 | 4 | -10 | 7 | 5 | 1.3 | 0.8 | / | 0.65
Cc1cc(C(=O)COc2ccccc2C#N)c(C)n1C1CC1 | 1.7 | -7 | 11 | -1 | -5 | 1.4 | -4.3 | i | 0.66

Reprinted from the entries so far (2 entries):
SMILES | UCH37 DUB inh | B2AR ag | ALR H2O2 inh | rRNA inh HTS | rRNA inh HTS OD600 | rRNA inh HTS RFP | HNF4A DNA FP | FGF22 binding | Ecoli growth
COc1ccc(NC(=O)c2ccc(N(C)S(C)(=O)=O)cc2)cc1OC | 5.2 | 4 | -10 | 7 | 5 | 1.3 | 0.8 | / | 0.65
Cc1cc(C(=O)COc2ccccc2C#N)c(C)n1C1CC1 | 1.7 | -7 | 11 | -1 | -5 | 1.4 | -4.3 | i | 0.66

(further entries)
SMILES | UCH37 DUB inh | B2AR ag | ALR H2O2 inh | rRNA inh HTS | rRNA inh HTS OD600 | rRNA inh HTS RFP | HNF4A DNA FP | FGF22 binding | Ecoli growth
CC(=O)c1ccc(OCCCC(=O)OCC(=O)Nc2ccc3[nH]c(=O)[nH]c3c2)cc1 | -0.6 | 10 | -11 | 20 | 14 | 3.6 | 1.9 | i | 0.63
Clc1ccc(Cn2cccn2)cn1 | 0.8 | 6 | / | 6 | 9 | 2.1 | 5.8 | i | 0.71
Cc1ccc(NC(=O)C2OCCc3ccccc32)cc1Cl (stereo not drawn) | 6.2 | 3 | / | / | / | / | -1.4 | i | 0.7
COc1ccc(-n2ccnc2SCC(=O)NCc2ccccc2)c(OC)c1 | 3.2 | 3 | -4 | -25* | -11* | -5.3* | -0.9 | i | 0.63
N/C(=N\OS(=O)(=O)c1ccc2ccccc2c1)c1ccccn1 | -3.3 | -5 | / | 0 | 6 | -4.0 | -1.9 | i | 0.67
CNc1nc(N)c([N+](=O)[O-])c(Nc2cccc(F)c2)n1 | 9.5 | 6 | -4 | 24 | 9 | 2.5 | 2.4 | / | 0.66
O=Cc1c(Nc2cccc(C(F)(F)F)c2)nc2ccccn2c1=O | 5.1 | -8 | / | 14 | 15 | -0.1 | -0.9 | i | 0.7
N#C/C(=C\c1ccncc1)c1nc2c(s1)CCCC2 | -121 | -10 | 16 | 12 | 12 | 4.1 | 1.7 | i | 0.69
COc1ccc(N2c3ccccc3CN(Cc3ccccc3)[C@@H](C)[C@H]2Cc2ccc(-c3ccccc3)cc2)cc1 | / | / | / | -50 | -71 | -14 | 3.6 | i | /
Cc1cc2c(c(=O)n1CCc1ccccc1)C(C(C)C)C(C#N)=C(N)O2 (stereo not drawn) | 1.5 | 8 | -2 | / | / | / | -3.1 | / | 0.7
O=[N+]([O-])c1cccc(-n2nncc2-c2ccccc2)c1 | / | 11 | 2 | 4 | -8 | -2.7 | 1.0 | i | /
CC(=O)N1CCN(c2ccc(NCc3ccc(-c4ccc(Br)cc4)o3)cc2)CC1 | 0.0 | -2 | 63 | 2 | 10 | 16 | 7.9 | i | 0.7
Cn1c(CSc2nc3ccccc3s2)nc2ccccc21 | 2.6 | 4 | / | / | / | / | 1.3 | / | 0.69
COCCn1c(SCC(=O)Nc2ccc3c(c2)CCC3)nc2ccccc2c1=O | 4.5 | 3 | -1 | 1 | 3 | -1.7 | 3.2 | i | 0.72
Cc1ncoc1C(=O)N1CCc2c([nH]c3ccccc23)C1C(C)(C)C (stereo not drawn) | -1.4 | 1 | 16 | -8 | -7 | 11 | 3.4 | i | 0.7
Cc1ccc(C)c(N2CCN(CCCNC(=O)Cn3cccc3C(=O)c3ccccc3C)CC2)c1 | 2.2 | 22 | -16 | -50 | -78 | -12 | 0.7 | i | 0.6
CC(C)CC1C(=O)N(Cc2cn(Cc3ccco3)nn2)CCS(=O)(=O)N1Cc1ccc(-c2cccc(CO)c2)cc1 (stereo not drawn) | / | / | / | 3 | -10 | -1.4 | 6.5 | i | /
COc1cc(S(=O)(=O)N2CCCCC2)ccc1NC(=O)/C=C/c1ccccc1 | 3.4 | 6 | 0 | / | / | / | 4.6 | / | 0.71
O=C(/C=C/c1ccccc1)NNC(=O)c1cccc(Cl)c1 | 5.2 | -2 | -16 | / | / | / | 5.9 | / | 0.69
Cn1ncc(Cl)c1C(=O)NCc1ccc(Cl)cc1 | 1.2 | 3 | -1 | 1 | 4 | -12 | 0.1 | i | 0.6
O=S1(=O)N[C@@H](Cc2ccccc2)COc2cc(N3CCSCC3)ccc21 | / | / | / | -15 | -16 | -1.2 | -1.9 | i | /
O=C(O)C1CCC1C(=O)Nc1nc(-c2ccc(Cl)s2)cs1 (stereo not drawn) | 5.3 | 1 | -12 | -28 | -23 | -8.6 | 5.4 | i | 0.64
Cc1cnc(C(=O)Nc2ccc(F)c(F)c2)cn1 | 2.3 | -4 | -6 | / | / | / | -1.7 | / | 0.72
CC(=O)Nc1sc2c(c1C(c1cccc(Cl)c1)N1CCN(CCO)CC1)CCCC2 (stereo not drawn) | 11 | -6 | 17 | -12 | -17 | 4.0 | 1.9 | i | 0.75
CC(C)(C)c1ccc(C(=O)N/N=C/c2cccc(Cl)c2)cc1 | / | 11 | -2 | / | / | / | -3.9 | / | /

The list is partial, so the mix of outcomes need not match the whole.
